ALR H2O2 inh – inhibitors of human sulfhydryl oxidase ALR; inhibition, % (concentration not given with the values); 290,000 compounds, 3.8% hits; P55789; purified ALR, DTT oxidation, H2O2 HRP-luminol luminescence;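 active = mean and each replicate at 75% or more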;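 also: stock transfer was 7.5 nL into about 7.5 µL; 0% = neutral wells and 100% = wells with inactivated enzyme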
B2AR ag – activates human beta-2 adrenergic receptor causing internalization; Am2.2-beta2AR cells, FAP receptor internalization, flow cytometry; reference of the scale not given here; response, % (test concentration not listed); 340,000 compounds, 0.43% hits;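 active = response above a set limit, near 3 SD of response in nonfluorescent compounds, cut at about 42% in these data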;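 also: stock transfer was 100 nL into about 11 µL; a reference agonist was the positive control; negative values mostly stem from fluorescent compounds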
LANA-H2A inh – blocks KSHV LANA binding to histone H2A/H2B. Q9QR71. cell-free LANA-H2A/H2B peptide, fluorescence polarization. inhibition, % (no concentration beside the values). 320,000 compounds, 0.6% hits; in the data active = inhibition mostly above about 10%, no sharp cut-off; inactive = mostly below about 6.7%;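 also: stock transfer was 7.5 nL into about 10 µL; 0% = median of vehicle wells and 100% = median of positive control wells; one replicate is shown; the record names a cut of 25% in any replicate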
Target sequence (Q9QR71 whole entry, looked up): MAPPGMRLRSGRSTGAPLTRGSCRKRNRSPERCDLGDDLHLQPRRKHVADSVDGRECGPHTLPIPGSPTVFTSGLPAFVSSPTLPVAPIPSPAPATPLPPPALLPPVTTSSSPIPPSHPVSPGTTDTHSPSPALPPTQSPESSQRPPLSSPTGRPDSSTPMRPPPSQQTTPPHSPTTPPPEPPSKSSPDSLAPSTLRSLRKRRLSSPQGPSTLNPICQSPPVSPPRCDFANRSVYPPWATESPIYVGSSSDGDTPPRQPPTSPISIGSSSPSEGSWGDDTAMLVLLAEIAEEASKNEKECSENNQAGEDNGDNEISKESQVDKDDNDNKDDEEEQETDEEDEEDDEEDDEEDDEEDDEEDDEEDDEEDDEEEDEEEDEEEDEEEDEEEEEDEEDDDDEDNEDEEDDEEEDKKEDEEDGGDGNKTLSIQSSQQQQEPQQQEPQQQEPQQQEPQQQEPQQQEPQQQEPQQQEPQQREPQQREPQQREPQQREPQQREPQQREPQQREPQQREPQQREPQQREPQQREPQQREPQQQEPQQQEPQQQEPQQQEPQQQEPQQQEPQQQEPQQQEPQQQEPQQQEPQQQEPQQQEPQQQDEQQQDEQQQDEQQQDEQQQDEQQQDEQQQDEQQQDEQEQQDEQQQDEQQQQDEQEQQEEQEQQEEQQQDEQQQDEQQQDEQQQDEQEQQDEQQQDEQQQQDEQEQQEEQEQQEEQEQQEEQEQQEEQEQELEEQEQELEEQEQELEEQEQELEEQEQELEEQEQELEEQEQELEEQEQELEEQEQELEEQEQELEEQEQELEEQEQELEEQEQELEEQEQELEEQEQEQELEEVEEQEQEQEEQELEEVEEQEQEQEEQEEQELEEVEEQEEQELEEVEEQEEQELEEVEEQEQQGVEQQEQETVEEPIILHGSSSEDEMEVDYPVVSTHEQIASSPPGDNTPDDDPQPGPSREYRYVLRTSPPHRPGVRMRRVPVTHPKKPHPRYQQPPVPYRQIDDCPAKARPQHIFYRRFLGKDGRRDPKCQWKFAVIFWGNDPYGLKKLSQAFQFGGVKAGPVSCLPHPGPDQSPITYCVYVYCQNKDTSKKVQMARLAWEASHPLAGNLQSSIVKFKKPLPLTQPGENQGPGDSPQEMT
HNF4A DNA FP – change in binding of human HNF4 alpha to DNA. HNF4a-FITC DNA binding, fluorescence polarization, 1 h. AID 1224865. activity change, % at 10 µM. 360,000 compounds, 0.3% hits; in the data active = activity change above about 30%, passing the limit was not always enough;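 also: controls were the assay level and a saturating level of protein; the project sought stronger binding though the title names inhibitors; some compounds called inactive have numbers as strong as hits; positive values seem to mean higher polarization but the record does not say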
FGF22 binding – binders of recombinant human FGF22 by thermal shift | Q9HCT0 | SYPRO orange fluorescence; percent of sucrose octasulfate shift, DMSO zero | calls only at 9.99 µM | 340,000 compounds, 1.5% hits | AID 651658;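 active = melting point raised past a set limit in the mean and every replicate; three in four hits are not shown here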
Ecoli growth – inhibitors of Escherichia coli growth | OD600, 23 h; active compounds read low | OD600 absorbance (test concentration not listed) | 330,000 compounds, 0.21% hits;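 active = OD600 absorbance below the run mean of sample wells minus 3.6 SD, in any replicate, cut at about 0.56 in these data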;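 also: stock transfer was 300 nL into about 60 µL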
UCH37 DUB inh – human UCH37 deubiquitinating enzyme inhibition | purified proteasome/UCH37, Ub-AMC cleavage fluorescence | inhibition, % (test concentration not listed) | 330,000 compounds, 0.33% hits;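 active = mean of two replicates above 20%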;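 also: 0% = compound-free wells with enzyme and 100% = wells lacking proteasome; stock transfer was 100 nL into about 20 µL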
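Material: human UCH37 enzyme supplied as purified proteasome complex. Measure: % inhibition of Ub-AMC cleavage fluorescence. Medium: pH 7.4 Tris-HCl (50 mM) with ovalbumin, ATP-MgCl2, DTT. Times: 30 min preincubation with enzyme, 25 min cleavage at room temperature. Detection: AMC fluorescence intensity at 355/460 nm.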
An asterisk follows results filed as active; i = inactive; / = no result given; & = joins results of further samples.

smiles,ALR H2O2 inh,B2AR ag,LANA-H2A inh,HNF4A DNA FP,FGF22 binding,Ecoli growth,UCH37 DUB inh
CC(=O)c1c(O)n(C)c(=S)n(-c2ccccc2)c1=O,6,0,7.1,26,/,0.68,3.9
COc1cccc(N(C(C)=O)C2=NCCCS2)c1,/,3,-1.9,1.2,i,0.65,2.5
O=C(c1ccc(F)cc1Cl)N1CCC2(CC1)OCCO2,0,-4,-8.4,-5.6,i,0.66,5.8
CCOC(=O)N(CC)c1ccc(C(O)(C(=O)OCC)C(F)(F)F)cc1 (stereo not given),0,8,-3.6,0.5,/,0.73,1.6
CCOC(=O)C1(c2ccccc2)CCN(Cc2cccc(C(=O)O)c2)CC1,-7,5,-1.5,3.8,i,0.65,5.6
Cn1cccc1CNCCc1ccc(F)cc1,-10,7,1.0,-0.1,/,0.65,0.6
CCCC1(CC(C)C)C(=O)NC(=S)NC1=O,/,1,/,0.5,i,/,/
CSc1ncc(/C=C2/C(=O)NC(=O)N(c3ccc(C(C)C)cc3)C2=O)cn1,57,5,2.3,0.1,/,0.73,2.9
Cc1cc(S(=O)(=O)NCC(C)C)ccc1OCC(=O)N1CCN(Cc2ccccc2)CC1,1,0,-1.7,-1.4,/,0.72,2.7
N#C/C=C/C#N,-13,-5,2.0,1.6,i,0.64,1.4

A draw from above in order of SMILES length, lowest first.
smiles,ALR H2O2 inh,B2AR ag,LANA-H2A inh,HNF4A DNA FP,FGF22 binding,Ecoli growth,UCH37 DUB inh
N#C/C=C/C#N,-13,-5,2.0,1.6,i,0.64,1.4
O=C(c1ccc(F)cc1Cl)N1CCC2(CC1)OCCO2,0,-4,-8.4,-5.6,i,0.66,5.8
CC(=O)c1c(O)n(C)c(=S)n(-c2ccccc2)c1=O,6,0,7.1,26,/,0.68,3.9
CCOC(=O)C1(c2ccccc2)CCN(Cc2cccc(C(=O)O)c2)CC1,-7,5,-1.5,3.8,i,0.65,5.6

Returning to the listing with the two entries that preceded the break.
smiles,ALR H2O2 inh,B2AR ag,LANA-H2A inh,HNF4A DNA FP,FGF22 binding,Ecoli growth,UCH37 DUB inh
Cc1cc(S(=O)(=O)NCC(C)C)ccc1OCC(=O)N1CCN(Cc2ccccc2)CC1,1,0,-1.7,-1.4,/,0.72,2.7
N#C/C=C/C#N,-13,-5,2.0,1.6,i,0.64,1.4
NP(=O)(OCCCc1ccccc1)Oc1ccccc1 (stereo not given),2,-6,-0.6,-0.2,i,0.65,-0.9
COc1ccc(NC2Oc3cc4c(cc3C(c3cc(OC)c(OC)c(OC)c3)C2C)OCO4)cc1 (stereo not given),/,25,/,0.2,i,/,/
O=c1[nH]c(=O)n(CCc2ccccc2)c(O)c1C=NCCCn1ccnc1,-1,0,-0.3,0.1,/,0.67,1.8
C(=NC12CN3CN(CN(C3)C1)C2)c1cccnc1,-5,21,1.9,0.7,/,0.7,0.3
CS(=O)(=O)N1CCN(C(=N)N[N+](=O)[O-])CC1,-2,-5,-6.4,-1.9,i,0.65,3.3
CCN1CCN(c2nc([N+](=O)[O-])nn2C)CC1,-7,3,5.0,-2.4,i,0.69,3.9
O=C1CC(=O)N(c2cccc(Cl)c2)C(=O)N1,2,-3,2.3,3.7,/,0.68,3.5
COc1ccc(/C=C(\C#N)C(=O)c2cccn2C)cc1,1,-14,0.1,-5.0,i,0.67,5.7
CC(N)Cc1c[nH]c2ccc(Cl)cc12 (stereo not given),-1,5,0.7,2.3,/,0.65,5.9
COc1cc(/C=N/NC(=O)CN2CC(c3ccccc3)CC2=O)ccc1OC(=O)N(C)C (stereo not given),0,12,-2.1,23,/,/,/

Next part, overlapping the part above by two compounds.
smiles,ALR H2O2 inh,B2AR ag,LANA-H2A inh,HNF4A DNA FP,FGF22 binding,Ecoli growth,UCH37 DUB inh
CC(N)Cc1c[nH]c2ccc(Cl)cc12 (stereo not given),-1,5,0.7,2.3,/,0.65,5.9
COc1cc(/C=N/NC(=O)CN2CC(c3ccccc3)CC2=O)ccc1OC(=O)N(C)C (stereo not given),0,12,-2.1,23,/,/,/
O=C(COc1ccc(Cl)cc1)N(c1ccc(Cl)cc1)C1CN2CCC1CC2 (stereo not given),-3,-2,-3.8,2.9,i,0.66,6.4
CCCCn1c(O)c(C(CC)=NC(C)c2ccccc2)c(=O)[nH]c1=O (stereo not given),-12,2,4.8,5.7,i,0.72,2.8
CN1CCN(c2ccc3c(c2)S(=O)(=O)c2ccccc2C3=O)CC1,/,1,2.9,0.1,i,0.65,3.1
Cc1c(P(=S)(c2ccccc2)c2ccccc2)[n+]2ccccc2n1C,/,1,/,75&-1.3,i,0.67,3.2
CCN1C(=O)NC(=O)/C(=C/c2cc(C)n(-c3sc(C)c(C)c3C#N)c2C)C1=O,14,5,-0.5,2.3,i,0.72,0.4
CCOc1ccc(CN2CCCC(C(=O)c3ccccc3OC)C2)cc1 (stereo not given),/,0,0.9,-1.4,i,0.7,-0.3
Cc1ccc(-n2c(O)c(C=NCc3cccnc3)c(=O)[nH]c2=O)cc1C,1,8,-2.9,-3.8,/,0.77,-2.4
CC1(C)CN=C(NCc2ccccc2)S1,/,3,-4.8,-2.8,i,/,/
O=P1(NCCCn2cc[n+](Cc3nc4ccccc4[nH]3)c2)C=C(c2ccccc2)OC(c2ccccc2)=C1,-2,-13,0.4,-1.7,i,0.66,2.3
CCOC(=O)C(O)(c1ccc(NC(=S)NC(=O)c2ccc(Cl)cc2Cl)c(C)c1)C(F)(F)F (stereo not given),2,1,-1.6,-1.0,i,0.69,4.0
COc1ccc(/C=C/C(=O)c2c(O)n(CCC3=CCCCC3)c(=O)[nH]c2=O)cc1OC,13,12,-4.1,0.1,i,0.72,4.1
COc1ccc(C2C([N+](=O)[O-])=C(N)Oc3c2c(=O)oc2ccccc32)cc1 (stereo not given),-4,/,-6.8,/,/,0.69,3.6
CC(C)CCCn1c(O)c(/C=C2/C=CC=N2)c(=O)[nH]c1=O,98*,-10,0.5,3.3,/,0.66,-8.2
O=c1[nH]oc2c1CCNC2,3,1,4.6,-0.8,i,0.69,0.1
O=C(N/N=C/c1c(O)n(-c2cccc3ccccc23)c(=O)[nH]c1=O)c1ccncc1,-5,2,-0.1,39*,i,/,/
O=C(COc1ccccc1)N1CCN(C/C=C/c2ccccc2)CC1,-2,-9,1.7,5.8,/,0.64,0.7
c1ccc(-c2nc(N3CCOCC3)s[n+]2-c2ccccc2)cc1,/,-1,3.4,-0.8,/,0.52*,1.8
CCCCCc1cc(O)c2c3c(c(=O)oc2c1)CN(C)CC3,7,37,-3.3,-0.6,i,0.53,5.4

Some of the compounds tested. The share of hits here may be higher or lower than overall.
